Assay outcomes deposited in PubChem BioAssay by several laboratories.
PrP UTR inh: inhibition of PrP 5' UTR reporter expression. cell-based PrP 5' UTR mRNA reporter, plate reader. inhibition, % (concentration not given with the values). 340,000 compounds, 0.35% hits. AID 488862;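 active means every replicate at 50% or more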;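 further: 0 = median of the neutral control wells; tested in H4 reporter cells; numbers are from one replicate; inactives centre near -14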
ugtP null kill: kills S. aureus RN4220 lacking UgtP; S. aureus RN4220 ugtP deletion, OD600 growth, 16 h; some inactives read as strong as hits; growth inhibition, % (test concentration not listed); 330,000 compounds, 0.54% hits;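 active means z-score under -3 and OD600 up to 0.15 on both plates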;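 further: plate controls were untreated wells for no effect and antibiotic for full effect; wells of about 80 µL received 100 nL stock; the first replicate is given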
BJeLR lethal: kills HRASV12-expressing BJeLR cells; BJeLR (HRASV12) viability, CellTiter-Glo ATP luminescence, 48 h; reference of the scale not given here; inhibition, % (test concentration not listed); 300,000 compounds, 0.17% hits; AID 1554;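 active means replicate mean above 50%; inconclusive means above 50% but judged a plate artefact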;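 further: 50 nL library stock added to about 25 µL; numbers are from one replicate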
RN4220 kill: S. aureus RN4220 growth inhibition; OD600, 16 h; inhibition, % (concentration not given with the values); 330,000 compounds, 0.33% hits; AID 1259311;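 active means z-score of -3 or lower and OD600 up to 0.18 on both plates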;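 further: plate controls were untreated cells for no effect and reference antibiotic for full effect; stock transfer was 100 nL into about 80 µL; one replicate is shown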
Mtb hypoxia rep: reduces hypoxia-regulated biosensor signal in M. tuberculosis; M. tuberculosis hypoxia-regulated fluorescent reporter, fluorescence; fluorescence inhibition, % (no concentration beside the values); 300,000 compounds, 0.1% hits; AID 1159583;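 active means 35 to 45% if threefold the growth effect, above 45% if 1.5-fold the growth effect; inactive means the rest, general growth blockers included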;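 further: wells of about 50 µL received 100 nL stock; 0% = vehicle wells and 100% = reference inhibitor wells; whole bacteria with a GFP reporter of the hypoxia response; strong numbers were not always called active; many hits fall short of the cut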
Autofluor counter: flagged as autofluorescent in microsphere protease counterscreen. compound autofluorescence counterscreen, microsphere flow cytometry; hits give high values. fluorescence intensity (test concentration not listed). 360,000 compounds, 3.1% hits. AID 624483;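 active means at least 3 SD above the mean of all compounds, about 16000 in these data; inconclusive means too few beads counted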;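 further: 100 nL of 1 mM stock went into each well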
Mtb hypoxia rep growth: recorded beside Mtb hypoxia rep, whose call it bears; growth inhibition, %; measured here: M. tuberculosis growth (absorbance);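 0% = vehicle and 100% = reference antibiotic; read after six days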
Starred values were filed as active, the others as inactive; ? = inconclusive; · = not tested or not shown.

SMILES	PrP UTR inh	ugtP null kill	BJeLR lethal	RN4220 kill	Mtb hypoxia rep	Mtb hypoxia rep growth	Autofluor counter
Cn1ncc(N=Cc2ccccc2)c1C(N)=O	-15.4	-1.7	-1.2	-2.8	·	·	4821
CC1(C)CC(=O)CC(=NNC(=O)C2CC23CCC3)C1 (centres undefined)	·	12.9	·	6.1	1.0	-2.8	·
COc1ccccc1-c1noc(-c2ccccc2C(=O)NCC2CCCO2)n1 (centres undefined)	-17.3	-0.3	2.0	0.6	8.0	9.0	5991
CN(C(=O)CSc1n[nH]c(=O)[nH]c1=O)c1ccccc1	-21.9	4.6	·	2.0	6.1	5.3	4438
O=S(=O)(Nc1ccc(O)c2ccccc12)c1ccc(OC(F)(F)F)cc1	·	-6.0	6.5	30.2	11.8	8.5	4399
CN1C2CCC1CC(OC(=O)C1C=Nc3ccccc31)C2 (centres undefined)	·	-3.8	·	6.5	7.7	1.2	·
O=C(CCc1ccc(S(=O)(=O)N2CCOCC2)cc1)Nc1nccs1	-23.7	4.3	0.7	1.4	4.5	-3.6	2844
O=C(COC(=O)c1c(Cl)cccc1Cl)Nc1cc(Cl)ccc1Oc1ccccc1	-14.9	-4.0	-1.4	-8.9	-2.4	1.8	2097
CC(=O)N1CCN(c2ccc(NC(=O)c3ccc4c(c3)OCCO4)cc2Cl)CC1	-3.1	-3.7	6.6	2.9	6.0	5.7	3713
Cc1ccc(CNC(=O)Cc2noc3ccccc23)cc1	-20.4	3.0	-0.5	9.6	3.1	-1.7	3156
C=CCN(Cc1cccc(OC)c1OC)S(=O)(=O)N(C)C	-36.0	5.7	-0.4	4.3	9.6	9.3	6300
CC(=NOC(=O)C1CC1)c1cc(-c2ccc(Cl)cc2)no1	·	5.7	·	6.6	19.9	11.8	·
Cc1cccc(C)c1N(Cc1ccccc1F)S(C)(=O)=O	-18.8	-0.9	-3.9	9.3	12.9	0.2	3609
COCC(C)n1c(SCC(=O)Nc2cc(C)on2)nc2ccccc2c1=O (centres undefined)	-20.0	1.7	·	-1.4	-0.6	-5.4	5399
CC(C)Oc1ccc(C(CC(=O)O)n2cnnn2)cc1 (centres undefined)	-22.7	-4.6	0.7	4.1	5.0	10.0	4802
Cc1ccc(Cl)cc1N1CCN(C2CCCCC2NS(=O)(=O)c2ccccc2)CC1 (centres undefined)	-46.2	13.6	-4.9	4.4	-1.8	-6.9	4750
COCCNC(=S)N(Cc1cc2cc(C)ccc2n2nnnc12)C1CCCC1	-6.0	0.5	-15.1	1.9	7.5	14.7	4191
CCCCN(C)C(=O)Cn1c(=O)oc2cc(S(=O)(=O)N3CC(C)CC(C)C3)ccc21 (centres undefined)	-49.1	-4.0	-9.7	0.3	0.4	-4.1	4788
COc1ccc(NC(=O)c2ccc(-n3cccn3)nc2)c(OC)c1	-8.6	1.4	-4.9	-0.6	-4.8	0.0	22774*
C/C(=N\NC(=S)NC1CCCCC1)c1ccc(OC(F)F)cc1OC(F)F	-9.7	·	-15.0	·	·	·	4756
CCOC(=O)c1ccc(NC(=S)N2CCN(CCNC3=CC(=O)CC(C)(C)C3)CC2)cc1	-5.6	3.1	3.5	3.0	-4.9	3.4	3842
CCOc1ccc(-c2ccc(/C=C3/C(=N)N4C=CSC4=NC3=O)o2)c([N+](=O)[O-])c1	-28.2	40.3	-6.3	8.3	1.3	-5.8	10410
Cc1ccc(-c2nc3ccccc3c(=O)n2CCCn2ccnc2)cc1	-2.9	4.2	3.6	1.9	0.5	-3.4	3373
Cc1ccc(S(=O)(=O)NN=Cc2ccc(Cl)c([N+](=O)[O-])c2)cc1	·	-17.7	·	1.6	-3.2	-3.4	·
CC(C)N1CC(C(=O)Nc2nc3ccccc3s2)CC1=O (centres undefined)	-30.0	0.8	-4.6	2.7	10.0	13.1	8486

Part of the list above, reformatted.
CC(=NOC(=O)C1CC1)c1cc(-c2ccc(Cl)cc2)no1
  PrP UTR inh: ·; ugtP null kill: 5.7; BJeLR lethal: ·; RN4220 kill: 6.6; Mtb hypoxia rep: 19.9; Mtb hypoxia rep growth: 11.8; Autofluor counter: ·

O=C(CCc1ccc(S(=O)(=O)N2CCOCC2)cc1)Nc1nccs1
  PrP UTR inh: -23.7; ugtP null kill: 4.3; BJeLR lethal: 0.7; RN4220 kill: 1.4; Mtb hypoxia rep: 4.5; Mtb hypoxia rep growth: -3.6; Autofluor counter: 2844

CC(=O)N1CCN(c2ccc(NC(=O)c3ccc4c(c3)OCCO4)cc2Cl)CC1
  PrP UTR inh: -3.1; ugtP null kill: -3.7; BJeLR lethal: 6.6; RN4220 kill: 2.9; Mtb hypoxia rep: 6.0; Mtb hypoxia rep growth: 5.7; Autofluor counter: 3713

The listing picks up, repeating the 6 entries before the break.
SMILES	PrP UTR inh	ugtP null kill	BJeLR lethal	RN4220 kill	Mtb hypoxia rep	Mtb hypoxia rep growth	Autofluor counter
C/C(=N\NC(=S)NC1CCCCC1)c1ccc(OC(F)F)cc1OC(F)F	-9.7	·	-15.0	·	·	·	4756
CCOC(=O)c1ccc(NC(=S)N2CCN(CCNC3=CC(=O)CC(C)(C)C3)CC2)cc1	-5.6	3.1	3.5	3.0	-4.9	3.4	3842
CCOc1ccc(-c2ccc(/C=C3/C(=N)N4C=CSC4=NC3=O)o2)c([N+](=O)[O-])c1	-28.2	40.3	-6.3	8.3	1.3	-5.8	10410
Cc1ccc(-c2nc3ccccc3c(=O)n2CCCn2ccnc2)cc1	-2.9	4.2	3.6	1.9	0.5	-3.4	3373
Cc1ccc(S(=O)(=O)NN=Cc2ccc(Cl)c([N+](=O)[O-])c2)cc1	·	-17.7	·	1.6	-3.2	-3.4	·
CC(C)N1CC(C(=O)Nc2nc3ccccc3s2)CC1=O (centres undefined)	-30.0	0.8	-4.6	2.7	10.0	13.1	8486
COc1cccc(-n2c(SCC(=O)NCc3cccs3)nc3ccccc3c2=O)c1	-14.7	17.5	9.8	8.6	-5.4	-5.8	2092
COc1ccc(-n2c(=O)c3c4c(sc3n3cnnc23)CC(C)CC4)cc1 (centres undefined)	5.5	5.2	-7.4	3.6	-2.3	-0.5	15907
CC(=O)N1CCC2(CC1)C/C(=N\NC(=S)Nc1ccc(C)cc1)c1cc(O)ccc1O2	-11.0	·	-6.4	·	·	·	4640
CCOC(=O)c1c(C)n(CCOC)c2ccc(O)cc12	-21.1	1.1	-6.1	-0.2	10.1	11.4	4893
Cc1cccc(OP(N)(=O)Oc2cccc(C)c2)c1	-16.1	1.6	-0.8	4.4	-0.2	4.5	5866
CN(CCc1ccccn1)C(=S)Nc1cccc(S(=O)(=O)N(C)C)c1	-14.5	3.8	-3.9	4.0	11.9	2.6	3353
C=CCNS(=O)(=O)c1ccc(OCC(=O)OC)cc1	-8.7	2.1	6.0	4.6	3.3	2.2	8070
CCOc1ccc(CCNC(=O)COC(=O)/C=C/c2ccc(OC)c(OC)c2)cc1OCC	-22.4	3.4	13.8	0.1	9.0	12.8	5427
COc1ccc(C(=O)c2coc3ccc(O)cc23)cc1	-33.5	2.9	-5.5	4.4	16.4	5.6	3593
CC(C)(C)NC(=O)c1ccccc1NC(=O)C1CCCO1 (centres undefined)	-18.4	-1.6	2.9	0.4	-6.0	-9.8	2265
COC(=O)C1=C(C)N(C)C(=O)NC1c1cc2c(cc1Br)OCO2 (centres undefined)	-13.9	-5.3	17.4	-3.9	-7.6	2.5	4075
COc1ccc(C(=O)Oc2cc(C=NNC(N)=S)ccc2OC)cc1	·	17.2	·	-0.9	·	·	·
COc1ccc(N2CCN(C(=O)CCCn3c(=O)[nH]c4ccsc4c3=O)CC2)cc1	11.1	14.0	-8.5	5.5	3.2	4.7	5085
Cc1ccc(S(=O)(=O)Nc2c3ccccc3nc(=O)n2-c2ccccc2)cc1	-14.7	7.2	1.4	14.4	·	·	3243
CCOC(=O)C1CCCN(C(=O)c2ccc(Cn3c(=S)[nH]c4cc(C(=O)OC)ccc4c3=O)cc2)C1 (centres undefined)	-30.5	2.5	3.0	8.3	5.5	14.5	4396
O=C(NC(=S)NCCSc1ccccc1)c1cccnc1	-12.2	8.8	0.4	12.4	9.8	12.7	2477
COc1ccc(NS(=O)(=O)c2cccc(NC(=O)c3ccc(S(=O)(=O)N4CCCCCC4)cc3)c2)cc1	-27.4	-22.4	16.7	-0.3	4.2	-2.6	10710
O=C(Nc1ccccc1Cl)Nc1ccccc1Cl	-28.6	2.4	14.5	7.1	3.4	2.1	4946
CCCN1CCN(C(=O)C2CCN(c3nnc(C)c4c(C)n(-c5ccc(C)cc5)nc34)CC2)CC1	-19.8	6.2	6.0	0.8	-3.9	-4.1	?
Nc1nc(-c2ccccc2)c(-c2ccc([N+](=O)[O-])cc2)s1	-9.4	4.2	-6.7	-7.8	4.9	16.0	5827
O=C(CSc1ncnc2c1nnn2Cc1ccc(F)cc1)NC1CCCC1	-19.5	-1.2	5.0	0.1	12.0	1.1	4092
COc1ccc(NC(=O)N2CCc3ccccc3C2)cc1	-55.7	-4.8	-1.0	-2.0	-8.2	-7.4	6289
COc1ccc(NC(=O)COc2ccccc2C(=O)NCC(c2ccccc2)N(C)C)cc1Cl (centres undefined)	-7.7	-8.7	-9.4	-9.2	-2.7	-0.3	4003
O=C(Nc1c(F)cc(F)cc1Br)c1cc(-c2ccco2)on1	-10.1	1.1	4.3	2.4	4.2	7.7	9903
Cc1cccc(OCc2nnc3n2CCCCC3)c1	-3.4	-8.2	0.5	-0.9	-3.5	1.8	3248

Further results.
SMILES	PrP UTR inh	ugtP null kill	BJeLR lethal	RN4220 kill	Mtb hypoxia rep	Mtb hypoxia rep growth	Autofluor counter
CCOc1cc(/C=N\NC(=O)CN2CCOCC2)ccc1OCc1ccc(F)cc1	-9.8	·	3.6	·	·	·	8945
Nn1cnnc1NN=Cc1ccc(-c2ccccc2[N+](=O)[O-])o1	·	-9.6	·	-2.8	-5.8	5.6	·
COc1ccc(S(=O)(=O)N2Cc3ccccc3CC2C(=O)N2CCOCC2)cc1OC (centres undefined)	-20.2	0.5	0.0	4.9	13.4	13.6	8141
COc1cccc(NC(=S)N(C)C2CCN(C)CC2)c1	-27.3	1.1	-6.5	1.7	-2.8	-3.0	3821
CC(=O)N1C(=O)N(C(C)=O)C2C1N(C(C)=O)C(=O)N2C(C)=O (centres undefined)	-32.1	0.3	4.4	3.0	1.8	8.3	9834
COc1ccc(CC(=O)Nc2c(C(=O)N3CCN(c4ccccc4)CC3)oc3ccccc23)cc1OC	5.6	13.4	0.8	2.5	6.3	5.2	6596
CCc1ccc2nc(SCC(=O)NCC3CCCO3)c(C#N)cc2c1 (centres undefined)	-34.9	2.7	5.4	-1.2	11.6	0.5	3334
COc1ccccc1N(C)S(=O)(=O)c1ccc(C(=O)N(C)Cc2ccc(Cl)s2)cc1	7.4	0.0	·	4.6	-3.1	-4.0	2857
CC(=O)N(Cc1cccnc1)Cc1cc2ccccc2[nH]c1=O	-2.4	0.4	7.1	2.0	-2.4	0.1	23316*
Cc1occc1C(=O)Nc1cccc([N+](=O)[O-])c1C	-24.7	1.8	5.5	4.3	4.0	-6.8	5116
CC(C)c1ccc(C2OCC(C)([N+](=O)[O-])CO2)cc1 (centres undefined)	-22.9	-7.7	·	0.0	2.9	12.6	3478
COc1cccc(NC(=S)NCc2ccc3c(c2)cc(C)n3C)c1	-21.2	-4.1	5.9	3.5	7.9	20.7	2002
COC(=O)c1sccc1NC(=O)c1cccc(OC)c1	-3.1	-8.5	9.5	13.1	·	·	2711
CCOC(=O)C(Cc1ccccc1)C(=O)c1ccco1 (centres undefined)	-1.6	4.0	-8.2	3.3	22.0	24.2	3780
Cc1ccc(-c2nnc(-c3ccccc3S(=O)(=O)Cc3ccc(Cl)cc3)o2)cc1	4.0	-4.2	0.7	0.9	·	·	2827
O=C(CSc1nnc(-c2ccc(Br)cc2)o1)Nc1cccc2ccccc12	-2.6	-25.2	-14.8	2.9	-3.9	9.2	23146*
COc1cccc(/C=N/NC(=O)c2cc(C34CC5CC(CC(C5)C3)C4)[nH]n2)c1	-0.8	·	-5.2	·	·	·	2889
O=C(NN=Cc1cc2ccccc2nc1Cl)/C(=C/c1cccs1)NC(=O)c1ccccc1	·	-10.7	·	2.3	7.9	5.5	·
